Mtb H37Rv – M. tuberculosis H37Rv growth inhibitors, H37Rv strain (AID 1626). M. tuberculosis H37Rv growth inhibition; higher % means a stronger effect. inhibition, % at 10 µM; hits with a dose series show IC50 in µM. 220,000 compounds, 0.95% hits;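 active = confirmed in a dose series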;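 also: bacteria incubated seven days before Alamar blue readout; 0% = bacteria only wells and 100% = bacteria with antibiotic wells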
Mtb betalactam – beta-lactam sensitization of Mtb H37Rv; M. tuberculosis H37Rv growth with meropenem, percent inhibition; hits of this screen are not shown here; inhibition, % at 25 µM; 330,000 compounds, 0.27% hits;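 active = about 74% or more and at least 40 points above the plate without the antibiotic, then above 30% in a dose series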;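 also: growth measured after seven days incubation then overnight dye step; 0% = bacteria only wells and 100% = bacteria with antibiotic; twin plates without the antibiotic show which effects depend on it; some results filed as inactive read as strong as hits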
YopH PTP inh – blocks Yersinia enterocolitica YopH tyrosine phosphatase; fluorescence Ex485/Em525; inhibition, %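 (about 10 µM by stock and volumes)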; 140,000 compounds, 0.16% hits;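 active = inhibition of 50% or more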;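 also: controls were vehicle for no effect and minimum signal wells for full effect; inactives centre near -20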
RecA intein inh – blocks M. tuberculosis RecA intein splicing | P9WHJ3 | 290,000 compounds, 0.75% hits | inhibition, %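 (about 9 µM by stock and volumes)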 | cell-free RecA intein splicing, fluorescence; in the data active = inhibition above about 30%;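 also: 0% = vehicle wells and 100% = reference inhibitor control wells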
Target sequence (P9WHJ3 whole entry, looked up): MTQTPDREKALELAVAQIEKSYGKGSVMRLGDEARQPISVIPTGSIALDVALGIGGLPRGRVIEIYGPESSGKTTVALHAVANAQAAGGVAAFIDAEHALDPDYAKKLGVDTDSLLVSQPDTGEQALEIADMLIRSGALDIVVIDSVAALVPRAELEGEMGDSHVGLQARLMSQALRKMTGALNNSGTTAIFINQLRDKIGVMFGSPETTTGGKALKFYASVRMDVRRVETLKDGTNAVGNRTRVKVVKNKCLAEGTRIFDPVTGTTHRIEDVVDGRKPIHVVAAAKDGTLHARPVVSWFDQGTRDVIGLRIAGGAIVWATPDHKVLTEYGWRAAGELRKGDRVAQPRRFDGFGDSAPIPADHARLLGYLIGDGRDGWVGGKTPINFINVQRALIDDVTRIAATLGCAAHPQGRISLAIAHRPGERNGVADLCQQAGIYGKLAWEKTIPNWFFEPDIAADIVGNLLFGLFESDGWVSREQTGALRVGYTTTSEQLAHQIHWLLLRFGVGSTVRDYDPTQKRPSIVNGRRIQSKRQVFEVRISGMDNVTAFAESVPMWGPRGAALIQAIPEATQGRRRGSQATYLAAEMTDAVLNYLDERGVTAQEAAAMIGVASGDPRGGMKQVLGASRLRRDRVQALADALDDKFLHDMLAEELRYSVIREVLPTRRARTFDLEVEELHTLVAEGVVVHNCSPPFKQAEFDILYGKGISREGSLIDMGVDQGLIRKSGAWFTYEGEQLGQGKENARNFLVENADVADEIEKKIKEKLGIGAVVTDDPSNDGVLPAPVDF
Arbovirus anti – arbovirus infection inhibition | arbovirus infection cell-based antiviral screen | inhibition, % at 10 µM | 200,000 compounds, 0.37% hits | AID 1251;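 active = inhibition from about 30%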;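 also: bluetongue infection of BSR cells; cell survival read as ATP light after 72 h; 0% = infected wells without compound and 100% = uninfected wells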
The depositor's hits bear a star.

For NC(=O)c1ccccc1NC(=O)CN1CCN(Cc2ccc(Cl)cc2Cl)CC1 the results were Mtb betalactam 41 and RecA intein inh 1.3.
For COc1ccc2cc(-c3ccccc3)c(=O)oc2c1 the results were Mtb betalactam -5 and RecA intein inh -3.9.
For CCN(CC)C(=O)c1ccc(C(=O)c2ccccc2)cc1 the results were Mtb H37Rv -3%, Mtb betalactam -7, YopH PTP inh -16, RecA intein inh -0.8 and Arbovirus anti -1.
For COc1ccc(Oc2nnc(C)c3ccccc23)cc1 the results were Mtb H37Rv -8%, Mtb betalactam -6, YopH PTP inh -26, RecA intein inh -1.0 and Arbovirus anti -4.
For Cc1ccc(C(=O)O/N=C(\N)c2ccc(Br)cc2)cc1C the results were Mtb H37Rv -10%, Mtb betalactam 91, YopH PTP inh -23, RecA intein inh 0.0 and Arbovirus anti -2.
`CC(Oc1ccc(F)cc1)C(=O)Nc1cccc(-c2nn[nH]n2)c1` (centres undefined) gave Mtb betalactam -14 and RecA intein inh 0.8.
For O=C(NCc1ccc2c(c1)OCO2)C(=O)Nc1cc2c3c(c1)CC(=O)N3CCC2 the results were Mtb betalactam -5 and RecA intein inh 1.7.
For Cc1onc(-c2ccccc2)c1C(=O)OCC(=O)c1ccccc1 the results were Mtb H37Rv 2%, Mtb betalactam 0, YopH PTP inh -28, RecA intein inh 6.5 and Arbovirus anti 7.
`C/C(CC(=O)Nc1ccc2c(c1)OCCO2)=N\NC(=O)Cc1ccc(Cl)cc1` gave Mtb betalactam 3 and RecA intein inh 1.9.
`COc1cc(OC)cc(C(=O)N2CCCC(Nc3ccc(F)cc3)C2)c1` (centres undefined) gave Mtb betalactam -5 and RecA intein inh -3.3.
`Cc1cc(SCc2ccc(F)cc2)nc(=O)[nH]1` gave Mtb betalactam -3 and RecA intein inh 1.4.
COc1ccc(NC(=O)C(=O)NNC(=O)COc2ccc(OC)cc2)cc1 was read as Mtb betalactam 3 and RecA intein inh 3.9.
Screening Cc1ccc(NC(=O)NCc2ccccn2)cc1Cl returned Mtb betalactam -11 and RecA intein inh -1.8.
For O=C(Nc1ccccc1Cl)c1cccs1 the results were Mtb H37Rv 3%, Mtb betalactam -1, YopH PTP inh -43, RecA intein inh 2.1 and Arbovirus anti 5.
`CC(C)Cc1cc(C(=O)NCCN2CCOCC2)no1` gave Mtb H37Rv 2%, Mtb betalactam 0, YopH PTP inh -29, RecA intein inh 0.7 and Arbovirus anti 2.
CC(=O)N(C)c1ccc(NC(=O)Nc2ccc(C)cc2)cc1 was read as Mtb H37Rv 3%, Mtb betalactam -12, RecA intein inh 0.9 and Arbovirus anti -1.
Screening CC(C)(C)C1CCc2c(C(=O)N/N=C/c3cccs3)csc2C1 (centres undefined) returned Mtb H37Rv 13%, Mtb betalactam 61, YopH PTP inh -34, RecA intein inh 5.5 and Arbovirus anti -29.
Cc1ccc(S(=O)(=O)N2CCCC2C(=O)Nc2cc(C)on2)cc1 (centres undefined) was read as Mtb H37Rv 2%, Mtb betalactam -2, YopH PTP inh -42, RecA intein inh -0.5 and Arbovirus anti 0.
O=C(COC(=O)C12CC3CC(CC(C3)C1)C2)Nc1ccc2[nH]c(=O)[nH]c2c1 was read as Mtb betalactam -3 and RecA intein inh -2.8.
Cc1ccc(-c2nnn(CC(=O)Nc3cccc4cccnc34)n2)o1 was read as Mtb H37Rv 4%, Mtb betalactam -3, YopH PTP inh -48 and Arbovirus anti -4.
For O=C(c1cc2cc(Br)cc(Br)c2oc1=O)N1CCCC1 the results were Mtb H37Rv -4%, Mtb betalactam 14, YopH PTP inh -36, RecA intein inh 0.2 and Arbovirus anti 1.
`COc1ccc(NC(=O)OC(CN2CCCCC2)C(F)(F)F)cc1` (centres undefined) gave Mtb H37Rv 2%, Mtb betalactam -2, YopH PTP inh -30, RecA intein inh 0.7 and Arbovirus anti 2.
For Cc1c(-c2ccccc2)[n+](=O)c(-c2ccc(Cl)cc2)c(C)n1[O-] the results were Mtb H37Rv 2%, Mtb betalactam 0, RecA intein inh 2.4 and Arbovirus anti 1.
`Cc1nc2oc(C(=O)c3ccccc3)c(N)c2c2c1COC(C)(C)C2` gave Mtb betalactam -8, YopH PTP inh -36 and Arbovirus anti 0.
NC(=O)c1c(/N=C/c2cccnc2)sc2c1CCCC2 was read as Mtb H37Rv -15%, Mtb betalactam -1 and RecA intein inh -5.0.
Cc1ccc(OCC(=O)OC2CCCN(C)C2)cc1 (centres undefined) was read as Mtb H37Rv 0%, Mtb betalactam 1, RecA intein inh 0.1 and Arbovirus anti 2.
COc1ccc(-c2cn[nH]c2-c2ccc(OCc3ccc(F)cc3)cc2O)cc1OC was read as Mtb H37Rv 9%, Mtb betalactam 0 and RecA intein inh 2.5.
CCOC(=O)C1CCN(Cc2c(O)ccc3ccccc23)CC1 was read as Mtb H37Rv 46%, Mtb betalactam 31, YopH PTP inh -19, RecA intein inh -2.5 and Arbovirus anti 3.
For O=C(Cn1c(CO)nc2ccccc21)NC1CCCCCC1 the results were Mtb H37Rv -3%, Mtb betalactam -6, RecA intein inh -3.3 and Arbovirus anti 2.
Screening C/C(=C\c1ccccc1)C(=O)N1CCN(Cc2ccc3c(c2)OCO3)CC1 returned Mtb betalactam 5 and RecA intein inh -1.5.
Cc1cc(F)ccc1S(=O)(=O)Nc1ncnc2sc3c(c12)CCC3 was read as Mtb H37Rv 4%, Mtb betalactam 0, RecA intein inh -0.5 and Arbovirus anti 16.
CN(c1ccc(C(=O)NC2CCCCC2)cc1)S(=O)(=O)c1ccccc1 was read as Mtb betalactam 4 and RecA intein inh -11.
For O=C(OCC(=O)c1ccc(Cl)s1)c1cnccn1 the results were Mtb betalactam -11 and RecA intein inh 7.4.
`CCCOc1ccc(N2C(=O)CC(N(Cc3ccco3)C(=O)CC)C2=O)cc1` (centres undefined) gave Mtb H37Rv -1%, Mtb betalactam 54 and RecA intein inh -3.2.
`CCN(CC)c1ccc(C=C(c2nnnn2-c2ccccc2)c2nnnn2-c2ccccc2)cc1` gave Mtb H37Rv 4%, Mtb betalactam -5, YopH PTP inh -3, RecA intein inh -18 and Arbovirus anti 4.
CCCCN(C)C(=O)c1nc2ccccn2c1CN1CCN(c2cnccn2)CC1 was read as Mtb H37Rv 0%, Mtb betalactam -2, RecA intein inh -1.6 and Arbovirus anti 7.
CC(=O)N1CCN(C(=O)/C(C#N)=C/c2ccc3c(c2)OCO3)CC1 was read as Mtb betalactam -1 and RecA intein inh 2.5.
Cc1c(Cc2ccccc2)c(=O)n2c([nH]c3ccccc32)c1C#N was read as Mtb H37Rv 3µM*, Mtb betalactam 99 and RecA intein inh -0.2.
CN(C)S(=O)(=O)N1CCN(c2cccc(Cl)c2)CC1 was read as Mtb H37Rv -12%, Mtb betalactam 5, YopH PTP inh -22, RecA intein inh 0.6 and Arbovirus anti -4.
For CCOCCCn1c(C)nc2c(c1=O)c1nc3ccccc3nc1n2-c1ccc(C)cc1 the results were Mtb H37Rv -4%, YopH PTP inh -1, RecA intein inh 1.3 and Arbovirus anti -2.
Screening COc1ccc(Cc2nnc(N/N=C/c3ccc(Br)cc3)[nH]c2=O)cc1OC returned Mtb H37Rv -6%, Mtb betalactam -3 and RecA intein inh 0.8.
`COc1cccc(Nc2nc(-c3sc(N)nc3C)cs2)c1` gave Mtb H37Rv 4%, Mtb betalactam -13, YopH PTP inh 33, RecA intein inh 5.4 and Arbovirus anti -4.
`O=Cc1ccc(OC2OCCOC2Oc2ccc(C=O)cc2)cc1` (centres undefined) gave Mtb H37Rv 2%, Mtb betalactam 8, YopH PTP inh -24, RecA intein inh 1.4 and Arbovirus anti 1.
For Cc1ccc(-c2nc3ncccc3o2)cc1NC(=O)c1cc2ccccc2o1 the results were Mtb H37Rv -13%, Mtb betalactam 8, YopH PTP inh -39, RecA intein inh -0.2 and Arbovirus anti -20.
Screening O=C(COC(=O)c1ccccc1Oc1ccccc1)NC1CC1 returned Mtb H37Rv 13%, Mtb betalactam -4, RecA intein inh -0.8 and Arbovirus anti 11.
Screening COc1ccccc1NS(=O)(=O)c1ccc(C)c(NC(=O)NC2CCCCC2)c1 returned Mtb H37Rv 0%, Mtb betalactam -2, YopH PTP inh -15, RecA intein inh -5.7 and Arbovirus anti 5.
`Cc1c(NS(=O)(=O)c2cccs2)cccc1-c1nc2cccnc2s1` gave Mtb H37Rv 5%, Mtb betalactam -1 and RecA intein inh -2.9.
For CCOC(=O)CC(NC(=O)CCc1c(C)nc2ncnn2c1C)c1ccc(OC(C)C)cc1 (centres undefined) the results were Mtb H37Rv 5%, Mtb betalactam 3, RecA intein inh -2.5 and Arbovirus anti 4.
O=C(NCc1ccccc1)C1=C[C@@H](C2CCCCC2)C[C@@H](OCc2ccc(CO)cc2)O1 was read as Mtb H37Rv 0%, Mtb betalactam 2, RecA intein inh -0.3 and Arbovirus anti 6.
For CCOC(=O)C1CSC(CC(=O)Nc2ccc(OC(F)(F)F)cc2)C(=O)N1 (centres undefined) the results were Mtb H37Rv -2%, Mtb betalactam 19 and RecA intein inh -0.6.
`CCN(c1ccccc1)S(=O)(=O)c1ccc(NC(=O)C(C)(C)C)cc1` gave Mtb H37Rv 6%, Mtb betalactam -3, YopH PTP inh 12, RecA intein inh -0.6 and Arbovirus anti -1.
CC(C)(Oc1ccc(Cl)cc1)C(=O)OCc1nc2ccsc2c(=O)[nH]1 was read as Mtb betalactam 1 and RecA intein inh 2.9.
Screening CC(C)(C)C(=O)c1cn(CC(=O)NCc2ccc3c(c2)OCO3)c2ccccc12 returned Mtb H37Rv 8%, Mtb betalactam -5, YopH PTP inh -9, RecA intein inh 1.1 and Arbovirus anti -5.
`COc1ccc(CN2C(=O)c3ccccc3C2=O)cc1C(=O)O` gave Mtb betalactam 2 and RecA intein inh -1.4.
For CC(=O)c1ccccc1OCc1ccc(C(=O)c2ccccc2)cc1 the results were Mtb betalactam 10 and RecA intein inh -1.5.
Screening Cc1nnc(SCCn2c(N3CCCCCC3)nc3c2c(=O)[nH]c(=O)n3C)s1 returned Mtb H37Rv -3%, Mtb betalactam 7, YopH PTP inh -30, RecA intein inh -4.0 and Arbovirus anti 4.
For Cc1ccc(CN2C(=O)CCC2C(=O)NCCN2CCN(c3cccc(Cl)c3)CC2)cc1 (centres undefined) the results were Mtb H37Rv -10%, Mtb betalactam -4 and RecA intein inh -0.4.
For COc1cccc(Cn2c(=O)sc3ccccc3c2=O)c1 the results were Mtb H37Rv 9%, Mtb betalactam 6, RecA intein inh -2.7 and Arbovirus anti 6.
CNC(=O)COC(=O)c1ccccc1Nc1ccccc1 was read as Mtb H37Rv 5%, Mtb betalactam -10, RecA intein inh -0.6 and Arbovirus anti -4.
O=C(NCc1ccco1)C1Cc2cc(Cl)ccc2O1 (centres undefined) was read as Mtb betalactam 9 and RecA intein inh -3.5.

Pulled one by one from the entries so far:
`CCN(c1ccccc1)S(=O)(=O)c1ccc(NC(=O)C(C)(C)C)cc1` gave Mtb H37Rv 6%, Mtb betalactam -3, YopH PTP inh 12, RecA intein inh -0.6 and Arbovirus anti -1.
Screening CC(C)(C)C(=O)c1cn(CC(=O)NCc2ccc3c(c2)OCO3)c2ccccc12 returned Mtb H37Rv 8%, Mtb betalactam -5, YopH PTP inh -9, RecA intein inh 1.1 and Arbovirus anti -5.
For CCOC(=O)CC(NC(=O)CCc1c(C)nc2ncnn2c1C)c1ccc(OC(C)C)cc1 (centres undefined) the results were Mtb H37Rv 5%, Mtb betalactam 3, RecA intein inh -2.5 and Arbovirus anti 4.
For COc1cccc(Cn2c(=O)sc3ccccc3c2=O)c1 the results were Mtb H37Rv 9%, Mtb betalactam 6, RecA intein inh -2.7 and Arbovirus anti 6.
O=C(NCc1ccccc1)C1=C[C@@H](C2CCCCC2)C[C@@H](OCc2ccc(CO)cc2)O1 was read as Mtb H37Rv 0%, Mtb betalactam 2, RecA intein inh -0.3 and Arbovirus anti 6.
For CCOC(=O)C1CSC(CC(=O)Nc2ccc(OC(F)(F)F)cc2)C(=O)N1 (centres undefined) the results were Mtb H37Rv -2%, Mtb betalactam 19 and RecA intein inh -0.6.
O=C(NCc1ccco1)C1Cc2cc(Cl)ccc2O1 (centres undefined) was read as Mtb betalactam 9 and RecA intein inh -3.5.

The listing continues:
For Cc1cccc(N=C2C(=O)Nc3c(Cl)cccc32)c1 the results were Mtb betalactam -1 and RecA intein inh 2.2.
Screening CCOC(=O)c1sc2nc[nH]c(=O)c2c1C returned Mtb H37Rv 3%, Mtb betalactam -5, YopH PTP inh -7, RecA intein inh 1.2 and Arbovirus anti -3.
For O=C(Nc1cccnc1)C1=NN(C2CCS(=O)(=O)C2)C(=O)CC1 (centres undefined) the results were Mtb H37Rv 7%, Mtb betalactam 3, RecA intein inh -5.9 and Arbovirus anti 8.
CCN1CCN(CCCNC(=O)c2ccc(NC(=O)C3=C(C)OCCS3)cc2)CC1 was read as Mtb betalactam -7 and RecA intein inh -1.1.
For NC(=O)c1nsc(C(=O)N(c2cccc(F)c2)C(C(=O)NCc2ccccc2)c2ccc(O)cc2)c1N (centres undefined) the results were Mtb betalactam 6 and RecA intein inh -3.9.
Screening CN(CCc1ccccn1)C(=O)c1ccc(OC(F)(F)F)cc1 returned Mtb H37Rv 1%, Mtb betalactam -2, RecA intein inh 4.8 and Arbovirus anti 22.

High-throughput results as filed in PubChem.

These rows are one share of the data (hit frequency here may not be typical).
